# PMP22 txn = PMP22 gene transcription modulation | S16 Pmp22-F2sN Schwann cells (luciferase reporters placed in the Pmp22 gene), FLuc/NLuc coincidence luminescence, 24 h | Potency, µM (titrated, usually from 57.5 µM), for the others: at the highest dose activity change, negative = inhibition, actives largely listed as inhibitors | 43,000 tested, 2% active; active = clear falling dose curves in both reporters; inconclusive = both reporters move, but less clearly or upward; inactive = either reporter flat; the % is the NLuc reporter signal; also: % is scaled to controls: 0 for no effect and ±100 for the full control effect; some results filed as inactive show a strong effect at the top dose
#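 Transcriptional readout in edited S16(c9) cells: two luciferases reported from the Pmp22 locus, measured in turn after 24 h compound incubation.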
# HTT prom inh = inhibits huntingtin promoter activity. HEK293 HTT promoter firefly luciferase reporter (activity 0% = vehicle and -100% = no light), 24 h. Potency, µM (doses to about 57.5 µM), for inactives: top-dose activity change, negative = inhibition, most hits filed as inhibitors. 48,000 tested, 0.93% active; active = well fitted inhibition curve with a large enough effect; inconclusive = small, poorly fitted or top-dose-only effect; inactive = no such curve, though single readings can be large or run the other way; also: nearly all actives have a fitted effect of over 50% in size
#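 Firefly luciferase readout (Dual-Glo, 10 min RT) after 24 h, 37 °C compound exposure (final up to 57.5 uM) of HEK293 reporter cells cultured 24 h beforehand; PTC124 at 50 uM final as control inhibitor; activity scaled vehicle 0%, zero RLU -100%.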
# * marks the source's active call; other numbers are inactive results; ? = inconclusive; [ ] = remark or other dose. Potency is read from the fitted curve at half-maximal effect.
SMILES,PMP22 txn,HTT prom inh
CC(C)OCCCNC(=O)CN1C(=O)c2cccnc2Sc2ccccc21,-10.1%,-4.1%
CCc1ccccc1N1C(=O)N(Cc2cccc(Cl)c2)c2ccccc2S1(=O)=O,?,?
CC(C)Cc1nn2c(=O)cc(COC(=O)c3cccc(NC(=O)c4ccccc4)c3)nc2s1,-25.0%,-9.7%
CCc1nn(CC(=O)NCc2ccccc2Cl)c(=O)c2cc3ccccc3n12,?,6.6%
COc1ccc(-c2nc(CN3CCC(C(=O)NCc4ccccc4)CC3)c(C)o2)cc1OC,-2.9%,6.0%
CC(C)OCCCNC(=O)c1c2c(nc3ccccc13)C(=O)N(C1CCCCC1)C2,-31.3%,-8.2%
COc1ccc(CCN2C(=O)c3oc4cc(C)cc(C)c4c(=O)c3C2c2ccc(F)cc2)cc1OC (stereo not given),12.1%,?
CCCCN(CCCC)c1ncnc2c1cnn2-c1cccc(C)c1,?,-21.6%
CCOC(=O)COc1ccc(C2C(C(=O)OC)=C(C)NC3=C2C(=O)c2ccccc23)cc1Cl (stereo not given),?,-6.0%
Cc1cccc(NC(=O)c2ccc(N(Cc3ccccc3)S(C)(=O)=O)cc2)c1,?,49.9%[activator]
CCOC(=O)C1CCN(c2nc3c(S(=O)(=O)c4ccc(Br)cc4)nnn3c3ccsc23)CC1,?,-0.9%
Cc1ccc(-n2c(=O)c3cccnc3n2CC(=O)Nc2ccc(C)cc2Cl)cc1,?,10.3%
Cc1ccccc1OCC(=O)OCc1cc(=O)n2nc(C3CC3)sc2n1,-27.0%,-1.4%
O=C(Cc1csc2ccccc12)NCc1cccc(Br)c1,-9.8%,11.2%
CCc1cccc(CC)c1NC(=O)C(Cc1ccccc1)NS(=O)(=O)c1cccc2nsnc12 (stereo not given),3.0%,?
CCOc1ccc(Cn2c(-c3ccc(OCC)c(OC)c3)nc3ccccc32)cc1OC,?,7.2%
CCOC(=O)c1sc(NC(=O)/C=C/c2ccc(OCC)cc2)c(C(=O)OCC)c1C,11.5%,16.2%
CCOc1ccc(-c2nc(SCC(=O)NCCCOC)c(-c3ccccc3)[nH]2)cc1,-11.9%,24.0%
COc1ccc(N2CCN(C(=O)c3cnn(-c4ccc(F)cc4)c3-n3cccc3)CC2)cc1,?,-23.5%
Cc1ccc(S(=O)(=O)C(CNC(=O)C(=O)NCc2ccccc2C)c2cccs2)cc1 (stereo not given),?,?
O=C(NCc1nc2ccccc2[nH]1)c1cccc(Cl)c1,33.8%,0.0%
CCOC(=O)C1CCN(C(=O)c2ccc(NC(=O)c3nsc4ccccc34)cc2)CC1,-4.6%,14.1%
Cc1ccccc1CN1C(=O)c2ccccc2S(=O)c2ccc(C(=O)NCc3ccc4c(c3)OCO4)cc21 (stereo not given),?,-17.7%
CCCC(=O)Nc1cccc(-c2nc3cc(C)c(C)cc3o2)c1C,?,-6.1%
Cc1ccc(-n2nc(C)c3c(C)cc(=O)n(CC(=O)NC(C)c4ccccc4)c32)cc1 (stereo not given),2.4%,11.1%
Cc1cc(NC(=O)c2ccc3c(c2)N(Cc2cccc(Cl)c2)C(=O)c2ccccc2S3(=O)=O)ccc1Br,-2.3%,-23.7%
CC(C)(C)C(=O)NCC(c1ccc2c(c1)OCO2)N1CCOCC1 (stereo not given),-14.0%,-5.2%
CCN(CC)c1cc(C)nc2nc(-c3ccc(C)cc3)nn12,?,-5.3%
CCN(C(=O)c1cc(S(=O)(=O)N2CCCCC2)c[nH]1)c1ccc(OC)cc1,-12.9%,-18.9%
COc1ccc(Cn2c(=O)[nH]c3cc(C(=O)NCCC(C)C)ccc3c2=O)cc1,1.8%,0.4%
Cc1ccc(Cl)cc1NC(=O)/C(C#N)=C/c1c(C)n(Cc2ccccc2)c2ccccc12,-3.4%,-9.2%
CCOc1ccc(C2=NC(c3cccs3)=Nc3ccc(CC)cc3N2)cc1OCC,?,11.0%
CCN(C(=O)C1CCCN(c2ncnc3onc(-c4ccc(F)cc4)c23)C1)c1ccccc1 (stereo not given),5.8%,-4.7%
CCOc1ccc(-n2nc(CO)c(C(=O)NCC(C)O)n2)cc1 (stereo not given),-8.9%,2.0%
Cc1ccc(C)c(N2CCN(S(=O)(=O)c3ccc(-c4cc(C(F)(F)F)on4)s3)CC2)c1,-4.1%,-1.9%
Cc1ccc2nc(COc3ccccc3NC(=O)c3ccccc3C)cc(=O)n2c1,0.2%,6.3%
COc1ccc(N2CCN(Cc3nc4c(c(=O)[nH]c(=O)n4C)n3Cc3ccccc3C)CC2)cc1,1.5%,1.7%
Cc1cccc(Oc2nc3c(c(=O)n(C)c(=O)n3C)n2Cc2ccccc2)c1C,-7.6%,-1.2%
Cc1ccc(CSc2nc3c([nH]c4ccccc43)c(=O)n2C)cc1,?,0.4%
CC1(C)CC(=O)c2cc(C(=O)Nc3ccc(Br)cc3)c(=O)[nH]c2C1,4.0%,54.3%[activator]
COc1ccc(C)cc1NC(=O)NCc1ccc2c(c1)CCN2C(=O)c1ccccc1,?,?
CCc1c(C)sc2c1CCN(C(=O)Nc1cc(OC)c(OC)c(OC)c1)C2c1ccccc1 (stereo not given),-25.7%,?
Cc1noc(NS(=O)(=O)c2ccc(NC(=O)c3ccc(Br)cc3)cc2)c1C,-37.4%,-10.3%
Cc1cc(C)c2nc(N3CCCC(C(=O)NCc4cccc(Cl)c4)C3)sc2c1 (stereo not given),-0.4%,-0.3%
CCc1nc2c(cnn2-c2ccc(C)cc2)c(=O)n1Cc1ccccc1,-0.6%,-24.5%
CCOc1ccc(OCC(=O)Nc2ccc(S(=O)(=O)Nc3cc(C)on3)cc2)cc1,19.9%,-0.8%
CCC(=O)Nc1ccc2nc(SCCOc3ccccc3)sc2c1,-27.5%,-12.5%
O=C1Cc2cc(S(=O)(=O)Nc3cccc(C(F)(F)F)c3)cc3c2N1CCC3,?,?
CC(=O)c1ccc(NC(=O)COc2ccccc2-c2nc(-c3cccc(C)c3)no2)cc1,-19.2%,1.5%
CCOc1ccc(-n2nc3ccc(NC(=O)COc4ccccc4)cc3n2)cc1,-4.2%,?
CCOc1ccc(-c2nnc(SCC(=O)NCc3ccc(C)cc3)nc2-c2ccc(OCC)c(OC)c2)cc1OC,-12.9%,-17.9%
COc1ccc(OCC(=O)NC(Cc2c[nH]c3ccccc23)C(=O)O)cc1 (stereo not given),?,-6.4%
Cc1ccc(Cl)cc1N1CCN(C(=O)CCC(=O)Nc2ccc3nc(N4CCC(C)CC4)cc(C)c3c2)CC1,?,-18.1%
COc1ccc(OC)c(NC(=O)Cn2c(=O)c3cccn3c3ccccc32)c1,?,-5.8%
CCC(Sc1nncn2c1cc1sccc12)C(=O)Nc1cccc(OC)c1 (stereo not given),?,1.5%
CCOC(=O)c1cnc2c(C)cc(C)cc2c1Nc1ccccc1OCC,-6.1%,1.4%
Cn1cc(-c2cc3n(n2)CCC(=O)N3CC(=O)NCc2ccc(Cl)cc2)c2ccccc21,-7.3%,0.0%
Cc1ccccc1C(=O)OCc1cc(=O)n2nc(-c3cccs3)sc2n1,-35.4%,-15.0%
Cc1cccc2c(=O)cc(CSc3ccccc3NC(=O)C(C)(C)C)[nH]c12,9.3%,-1.3%
CCN(CC)S(=O)(=O)c1ccc2c(c1)c(=O)c(C(=O)NCc1ccc(Cl)cc1)cn2C,?,-1.9%

# (more compounds)
SMILES,PMP22 txn,HTT prom inh
Cc1ccc(CNC(=O)C(C)n2c(=O)cc(-c3ccccc3)c3c(C)nn(C)c32)cc1 (stereo not given),-2.0%,-18.1%
Cc1ccccc1C(=O)Nc1cccc(C(=O)OCc2cc(=O)n3ccsc3n2)c1,-14.7%,-1.4%
CCOc1ccc(NC(=O)N2CCC(n3c(C)nc4cccnc43)CC2)cc1,?,0.0%
CCOc1ccccc1NC(=O)CN(C)S(=O)(=O)c1ccc(C(=O)N2CCOCC2)s1,-16.3%,-18.1%
CCN1C(=O)N(c2ccc(C(C)=O)cc2)S(=O)(=O)c2ccccc21,0.7%,-13.4%
Cc1ccc(CNS(=O)(=O)c2ccc(-c3cnc(C4CC4)o3)cc2)cc1,?,?
CCN(Cc1ccccc1)C(=O)CCS(=O)(=O)c1cc(Br)cc2c1N(C(=O)C1CC1)CC2,-15.5%,-22.7%
CCc1nn(CC(=O)NCc2cccc(OC)c2OC)c(=O)c2cc3occc3n12,-24.2%,2.9%
O=C(NCc1ccc2c(c1)OCO2)c1ccc2c(c1)N(Cc1ccccc1F)C(=O)c1ccccc1S2=O (stereo not given),-18.4%,-12.9%
Cn1cnc(S(=O)(=O)N2CCC(C(=O)NCc3ccccc3)CC2)c1,16.9%,-23.4%
Cc1ccc(Nc2c(-c3ccc(Br)o3)nc3ccccn23)cc1,-12.8%,0.7%
Cc1cccc2sc(N(Cc3cccnc3)C(=O)COc3ccccc3)nc12,?,?
Cc1cccc(C)c1Nc1c(-c2ccc(Cl)s2)nc2ncccn12,9.8%,?
Cc1ccccc1Nc1c(-c2cccnc2)nc2cccc(C)n12,7.1%,?
COc1ccccc1CNC(=O)Cn1c(=O)nc(-c2ccccc2)c2ccccc21,8.4%,-2.9%
COc1ccc(C)cc1NC(=O)C(=O)NCC(c1cccnc1)N1CCN(c2ccccc2F)CC1 (stereo not given),8.4%,?
Cn1c(=O)c2c(SCC(=O)N3CCc4ccccc43)nc(-c3cccc(F)c3)nc2n(C)c1=O,17.6%,-10.6%
NC(=O)c1nn2c(C(F)(F)F)cc(-c3ccc(Br)cc3)nc2c1Cl,-18.9%,-32.4%
O=C(CSc1nc2c(oc3ccccc32)c(=O)[nH]1)Nc1cccc(Cl)c1,?,6.4%
CCOc1ccccc1Nc1ccc2cc(S(=O)(=O)N3CCCCC3)ccc2n1,?,?
Cc1ccc(CSc2nc(=O)c3c(C)cc(C)nc3n2C2CC2)cc1,-19.6%,?
CCc1ccc(NC(=O)CSc2nc(-c3cccc(OC)c3)nc3c2Cc2c(CO)cnc(C)c2O3)cc1,?,-13.2%
COc1ccc(OCC(=O)N(Cc2cccs2)c2ccc(OC)cc2)cc1,?,-15.7%
CCOC(=O)c1c(C)n(-c2ccccc2)c2ccc(OC(=O)c3cccc(Cl)c3)cc12,-16.3%,2.2%
CCc1ccc(S(=O)(=O)c2cn(Cc3ccccc3F)c3cc(OC)c(OC)cc3c2=O)cc1,14.2µM*,?
Cn1nc(-c2ccc(C(=O)Nc3ccc(F)cc3)cc2)c2ccccc2c1=O,-8.7%,?
CCc1cccc(NC(=O)Cn2nc(CC)n3c(cc4cc(C)ccc43)c2=O)c1,3.8%,14.2%
Cc1cc(=O)n(C(C)C(=O)N2CCCc3ccccc32)c2c1c(C)nn2-c1ccccc1 (stereo not given),?,?
NS(=O)(=O)c1ccc(CCNC(=O)c2ccc3nc(CCc4ccccc4)oc3c2)cc1,-3.8%,0.1%
CCCc1cc(=O)oc2cc(C)c3c(-c4ccccc4)coc3c12,-16.1%,-10.8%
Fc1cccc(-c2nnn3c2nc(NC2CCCCC2)c2ccccc23)c1,?,-8.0%
O=C(O)CCCC(=O)N1CCc2cc(S(=O)(=O)NCc3ccccc3)ccc21,-52.3%,-1.9%
Cc1ccc(S(=O)(=O)N2CCCc3cc(NC(=O)c4ccc(C(C)(C)C)cc4)ccc32)cc1,-13.1%,-23.8%
CCOc1ccc(CNC(=O)c2ccc(NC(=O)N3CCSc4ncccc43)cc2)cc1,2.1%,-27.0%
COc1cc(OC)cc(N2C(=O)N(Cc3ccc(C(C)(C)C)cc3)c3ccccc3S2(=O)=O)c1,6.8%,-13.4%
COCCCNc1nc2c(-c3ccccc3)nnn2c2ccccc12,?,-20.8%
CC(C)(C)c1ccc(C(=O)N2CCC(c3nc4ccccc4o3)CC2)cc1,?,-24.0%
CC(C)c1ccc(NC(=O)c2cc(S(=O)(=O)NCCC3=CCCCC3)ccc2F)cc1,?,?
CC(=O)Nc1cccc(NC(=O)c2cc3c(=O)n4cccc(C)c4nc3n2C)c1,6.0%,8.0%
CN(C)c1ccc(NC(=O)CN2CCN(CC(=O)Nc3ccc(Br)cc3)CC2)cc1,-5.4%,-5.3%
CSc1cccc(NC(=O)Cn2ncn3c(cc4ccccc43)c2=O)c1,20.1%,-2.8%
CCC(CC)C(=O)Nc1cccc(-c2nc3cccnc3s2)c1C,-42.7%,-14.0%

# Bioassay records: PubChem BioAssay, National Center for Advancing Translational Sciences (NCATS)
